VACV Venus inh = inhibitors of vaccinia virus (Venus reporter). AID 720580. Vaccinia virus Venus reporter expression, fluorescence. Potency, µM (top dose mostly 36.5 µM), inactives show at the top dose activity change, negative = inhibition, most hits filed as inhibitors. 0.46% of 330,000 active; active means well fitted inhibition curve with a large enough effect; inconclusive means small, poorly fitted or top-dose-only effect; inactive means no such curve, though single readings can be large or run the other way; tested in A549 cells; further: nearly all actives have a fitted effect of over 30% in size; inactives centre near -10
VACV mCherry inh = vaccinia inhibition (mCherry reporter); AID 720579; Vaccinia virus mCherry reporter infection, fluorescence; about a quarter of the inactives have no number; Potency, µM (top dose mostly 36.5 µM), for inactives: at the top dose activity change, negative = inhibition, most hits filed as inhibitors; 0.63% of 310,000 active; active = well fitted inhibition curve with a large enough effect; inconclusive = small, poorly fitted or top-dose-only effect; inactive = no such curve, though single readings can be large or run the other way; tested in A549 cells; further: nearly all actives have a fitted effect of over 35% in size; inactives centre near -10
* = called active by the depositor; i = inactive; ? = inconclusive; / = not tested or not shown; & = joins results of further samples. On the % scale 0 is the no-effect control and ±100 the full control effect; potency means the concentration at half of the fitted maximal effect.

The line under a structure holds: VACV Venus inh	VACV mCherry inh
CC(C)(C)c1ccc(S(=O)(=O)NC(=O)C2(C)CCN2C(=O)C2(c3ccc(Cl)cc3)CC2)cc1 (stereo unspecified)
→ 1.1%	12.8%
OC(c1ccccc1)(c1ccccc1)C1CCN(CCCOc2ccccc2)CC1
→ -23.9%	?
CCSc1nnc(SCC(=O)NNC(=O)c2ccccc2F)s1
→ -8.2%	-13.1%
NC(=O)C1CCCN1Cc1ccc2c(c1)OCO2 (stereo unspecified)
→ -23.8%	i
CC1(C)Cc2c(sc3c2c(=N)n(Cc2ccco2)c(=O)n3Cc2ccccc2)CO1
→ -10.1%	-4.7%
C/C(=C\COc1cc(=O)[nH]c2ccccc12)CCC(O)C(C)(C)O (stereo unspecified)
→ -4.2%	1.1%
COc1cc(CNc2nc3ccccc3n2C)cc(OC)c1OC
→ -4.2%	-12.9%
COc1cccc(OC)c1C(=O)N1CCN(C(=O)c2ccc(-c3ccccc3)cc2)CC1
→ -14.9%	-18.4%
Cc1nn(C2CCS(=O)(=O)C2)c(Cl)c1/C=C/C(=O)OCC(=O)Nc1ccccc1[N+](=O)[O-] (stereo unspecified)
→ 2.9%	i
Cc1cc(-c2cc(C(=O)NC3CCCC3)on2)nc(NCC2CC2)n1
→ -26.7%	-14.7%
CC(=O)c1ccccc1NC(=O)COC(=O)CCCN1C(=O)c2cccc3cccc(c23)C1=O
→ -20.8%	-3.1%
CC1=CC(=O)c2c(O)cccc2C1=O
→ -9.5%	i
O=C(NC1CCCCC1)C1c2ccccc2OCC(=O)N1Cc1ccccc1 (stereo unspecified)
→ 5.0%	15.7%
Cc1ccc(S(=O)(=O)N2CCCCC2)cc1NC(=O)COC(=O)C1=COCCO1
→ 7.6%	i
O=S(=O)(NC1CCCCCCC1)c1cccs1
→ -8.3%	-5.7%
CC(NC(=O)c1ccc(CS(C)(=O)=O)cc1)c1ccc(-c2ccccc2)cc1 (stereo unspecified)
→ -16.9%	?
O=C1CN=C(Nc2ccccc2)N1Cc1cccs1
→ -11.9%	-22.7%
c1ccc(Cn2nnc3c(N4CCOCC4)ncnc32)cc1
→ -7.3%	-29.1%
COC(=O)c1c(NC(C)=O)csc1C
→ -8.9%	-9.1%
Cc1oc(-c2ccc(Cl)cc2)nc1CS(=O)CC(=O)NCc1ccco1 (stereo unspecified)
→ -17.3%	?
Cc1ccccc1S(=O)c1ccccc1C(=O)O (stereo unspecified)
→ -3.6%	-21.6%
Cc1ccc(C(=O)NCCOC23CC4CC(CC(C4)C2)C3)cc1
→ -26.4%	-8.5%
COc1ccc(CN2CCN(C(=O)Cn3nc(C)n4cccc4c3=O)CC2)c(OC)c1OC
→ -10.4%	i
CCOc1ccccc1C(=O)N[C@H](C(=O)Nc1nc2c(s1)CCCC2)C(C)C
→ -27.9%	-8.3%
Cc1cc(C)n(C(C)CC(=O)Nc2ccc(C)c(N(C)C)c2)n1 (stereo unspecified)
→ -4.2%	-10.4%
O=C1c2ccccc2C(=O)N1CC1c2ccccc2CCN1C(=O)CN1CCOCC1 (stereo unspecified)
→ -7.6%	-4.4%
Cc1ccccc1OCc1nnc(SCc2nc3ccccc3c(=O)[nH]2)n1C
→ -13.1%	-5.3%
O=C(COc1ccc(C(=O)c2ccccc2)cc1)Nc1cccnc1
→ 2.4%	-13.3%
CCOC(=O)c1c(S(=O)(=O)N2CCCC(C(=O)Nc3cc(C)ccc3OC)C2)c(C)n(C)c1C (stereo unspecified)
→ -7.4%	-6.2%
CCC(=O)Nc1cc(C(=O)OCc2ccc(C(=O)Oc3ccccc3)cc2)ccc1C
→ -1.5%	-13.3%
Cc1cc(C)nc(SCC(=O)O)n1
→ -8.6%	/
O=C(NCCc1ccccc1)c1ccc2c(c1)N(Cc1ccc(Cl)cc1)C(=O)CS2
→ -19.1%	-20.3%
CCC(=O)c1cn(CC(=O)Nc2cccc(C)c2C)c2ccccc12
→ -0.7%	-16.8%
CC(=O)c1ccc(OCCCC(=O)Nc2cccc(S(=O)(=O)N3CCCCCC3)c2)cc1
→ -13.3%	-24.5%
Cc1cccc(NC(=O)N2CCN(C)c3ncccc32)c1C
→ -6.7%	-5.4%
Cc1ccc(C(=O)NCC(c2ccc3c(c2)OCO3)N2CCOCC2)cc1 (stereo unspecified)
→ -3.6%	-2.6%
O=C(CN1C(=O)CC(c2ccco2)Sc2ccccc21)Nc1ccc(C(F)(F)F)cc1 (stereo unspecified)
→ -2.7%	1.4%
CCCCc1ccc(NC(=S)N2CCN(C(=O)OCC)CC2)cc1
→ -12.1%	-14.3%
COc1ccc(NS(=O)(=O)c2ccc(C(=O)OC(C)C(=O)N3CCOCC3)cc2)cc1 (stereo unspecified)
→ -7.8%	-8.8%
O=C(NC(=S)Nc1ccccc1N1CCCC1)c1ccc(F)cc1
→ 14.5%	-8.0%
O=C(NCCOc1ccccc1)C1CCC(=O)N(Cc2ccc(Cl)cc2)C1 (stereo unspecified)
→ -20.2%	-6.0%
OCCC1CN(CCCc2ccccc2)CCN1Cc1ccccc1 (stereo unspecified)
→ 0.3%	-6.5%
O=C(NCCN1CCC(n2c(=O)[nH]c3ccccc32)CC1)c1cccc(Cl)c1
→ -10.9%	-14.4%
CCOC(=O)C1CCCN(CCC(=O)Nc2cccc(F)c2)C1 (stereo unspecified)
→ -1.2%	-12.3%
O=C(CN(C(=O)CSc1nc2ccccc2o1)c1cccc(F)c1)NC1CCCCC1
→ -15.2%	-15.1%
COc1cccc(-c2cnc3c(NC(C)=O)cc(-c4ccc(C(=O)N5CCOCC5)cc4)cn23)c1
→ -9.7%	i
COc1cc2cc3c(N)c(C(=O)Nc4sc(C)c(C)c4C#N)sc3nc2cc1OC
→ -9.9%	-7.3%
OC[C@@H]1CN(Cc2ccccc2)C[C@H](n2cnc3c(Nc4ccccc4)ncnc32)O1
→ 2.3%	0.9%
CC(C)n1nc(C(=O)Oc2cccc(Cl)c2Cl)c2ccccc2c1=O
→ -19.4%	-4.0%
O=C(OCc1ccc([N+](=O)[O-])cc1)c1ccc(N2CCCC2)c([N+](=O)[O-])c1
→ -10.1%	-15.5%
CCCCC(CC)CNC(=O)CCS(=O)(=O)c1cccc2nonc12 (stereo unspecified)
→ -18.3%	-28.9%
CCCCn1c(N)c(N(CC)C(=O)c2cccc(F)c2)c(=O)[nH]c1=O
→ -0.2%	-7.6%
O=C(NC1CC1)C1CCN(c2ccc(S(=O)(=O)N3CCOCC3)cc2)CC1
→ -18.3%	i
COC(=O)c1c(-c2ccc(Cl)cc2)noc1N1CCN(c2ccccc2F)CC1
→ 4.9%	-10.2%
CC(=O)c1cc(CN2CCN(CCc3ccccc3)C(CCO)C2)cs1 (stereo unspecified)
→ -6.2%	i
CCCCNC(=O)c1nn2c(C(F)(F)F)cc(-c3ccccc3)nc2c1Br
→ -18.6%	i
Cc1ccc(F)cc1-c1cc2nc(NCCCN(C)C)n(C)c(=O)c2s1
→ ?	?
C/C(N)=C(/C#N)C(=O)COC(=O)c1ccc(C#N)cc1
→ -10.6%	i
CN(Cc1cn(-c2ccccc2)nc1-c1cc2ccccc2o1)C(=O)CCC(=O)O
→ -4.9%	i
CCOc1ccc2[nH]c(C)c(CN3CCOCC3)c(=O)c2c1
→ -11.0%	i

Going on with the list.
The line under a structure holds: VACV Venus inh	VACV mCherry inh
CCOc1cc(C=NNC(=O)CCCC(=O)NN=Cc2ccc(O)c(OCC)c2)ccc1O
→ 4.1%	-16.3%
COCCn1c(=S)[nH]c2cc(C(=O)NCc3ccc(F)cc3)ccc2c1=O
→ -5.3%	-2.5%
C=CCn1c(SCC(=O)NNC(=S)Nc2ccccc2)nnc1-c1ccccc1
→ -0.5%	i
COC(C)(C)CCCC(C)C/C=C/C(C)=C/C(=O)OC(C)C (stereo unspecified)
→ -5.4%&-7.5%	-13.3%&-18.6%
COc1ccc(N2CCN(C(=O)c3cccnc3)CC2)c([N+](=O)[O-])c1
→ -15.1%	i
CC(O)c1nc2ccccc2n1Cc1nnc(-c2ccc(Cl)cc2)o1 (stereo unspecified)
→ ?	-23.1%
CSc1ncc(Cl)c(C(=O)Nc2cc(C(F)(F)F)ccc2Cl)n1
→ 8.0%	1.0%
O=C(CC1SC(N2CCOCC2)=NC1=O)Nc1cc([N+](=O)[O-])ccc1Cl (stereo unspecified)
→ -14.0%	i
CN(CCc1ccccc1)C(c1ccnc2ccccc12)c1nnnn1-c1ccc2c(c1)OCCO2 (stereo unspecified)
→ -4.2%	-8.1%
Cc1ccc(NS(=O)(=O)c2ccc(C(=O)N3CCN(c4ncccn4)CC3)cc2)cc1
→ ?	-13.8%
COc1ccc(C(=O)Nc2nc(-c3ccccc3)c(C(C)=O)s2)c(OC)c1
→ 0.7%	-7.7%
CCOC(=O)c1c(C)[nH]c(C)c1S(=O)(=O)N1CCCC(C(=O)Nc2ccc(C)cn2)C1 (stereo unspecified)
→ -13.3%	i
CCCOc1ccc(/C(O)=C2/C(=O)C(=O)N(CCN3CCOCC3)C2c2ccccc2)cc1 (stereo unspecified)
→ 2.0%	-13.3%
O=C(NCC1CCCO1)C(c1cccs1)N(Cc1cccs1)C(=O)c1ccc(-c2ccccc2)[nH]1 (stereo unspecified)
→ ?	?
CN1CCN(C(=O)CN(Cc2ccc(Cl)cc2)S(C)(=O)=O)CC1
→ 5.2%	/
COc1ccc(NC(=O)c2c(N)no[n+]2[O-])c(OC)c1
→ -8.7%	-8.4%
COc1cc(CNC(=O)C2CCCN2S(=O)(=O)c2ccccc2)cc(OC)c1OC (stereo unspecified)
→ -11.5%	i
COc1ccc(/C(C)=N/NC(=S)NCCc2ccccc2)c(O)c1
→ -22.8%	?
O=S(=O)(NCc1ccc(Cl)cc1Cl)c1cccs1
→ -12.5%	i
O=C(COC(=O)c1cccnc1Cl)NCCCc1ccccc1
→ -4.5%	-5.3%

One compound at a time, from the list above. Values in the order: VACV Venus inh | VACV mCherry inh
`CC(=O)c1ccccc1NC(=O)COC(=O)CCCN1C(=O)c2cccc3cccc(c23)C1=O` is listed as -20.8% | -3.1%
`COc1ccc(CN2CCN(C(=O)Cn3nc(C)n4cccc4c3=O)CC2)c(OC)c1OC` is listed as -10.4% | i
`NC(=O)C1CCCN1Cc1ccc2c(c1)OCO2` (stereo unspecified) is listed as -23.8% | i
`Cc1ccccc1S(=O)c1ccccc1C(=O)O` (stereo unspecified) is listed as -3.6% | -21.6%

Next entries.
The line under a structure holds: VACV Venus inh	VACV mCherry inh
O=C(O)c1cccc(Br)c1
→ -4.0%	2.3%
COCCCn1c(=N)c(C(=O)NCc2cccnc2)cc2c(=O)n3cc(C)ccc3nc21
→ -4.2%	13.4%
COc1ccc(CCNCc2cccc(C(F)(F)F)c2)cc1OC
→ -20.4%	-7.8%
N#CCCS(=O)(=O)c1ccc(N)cc1
→ -10.2%	-9.1%
O=C(NC(Cc1ccc(O)cc1)C(=O)O)c1ccco1 (stereo unspecified)
→ -13.0%	-1.3%
CCN(CC)S(=O)(=O)c1ccc(CNC(=O)CN2C(=O)NC3(CCc4ccccc43)C2=O)cc1 (stereo unspecified)
→ -7.7%	i
CCOC(=O)c1c(C)oc2c1cc(NS(=O)(=O)c1ccc(C(=O)O)cc1)c1ccccc12
→ 7.5%	-15.2%
COc1ccc(C(=O)NNC(=O)CN2CCC(n3nnc4cc(C(F)(F)F)ccc43)CC2)cc1
→ -15.4%	-8.9%
COc1ccc(N(Cc2ccccc2)C(=O)c2nc(SC)ncc2Cl)cc1
→ -5.8%	-12.4%
Cc1nn(-c2ccccc2)c2sc(C(=O)O)cc12
→ -10.4%	i
COc1ccc(-c2[nH]ncc2CN(CCO)CC23CC4CC(CC(C4)C2)C3)c(OC)c1
→ -14.6%	-25.6%
CSc1ccn(CCC(=O)O)c(=O)n1
→ -5.7%	i
CCOC(=O)CNC(=O)c1cccnc1Oc1ccc(Cl)cc1
→ -20.2%	-0.9%
CCCS(=O)(=O)Nc1c(OC)ccc2c1c(C(=O)OCC)c(C)n2C
→ -8.7%	-21.5%
CCOc1ccccc1NC(=O)Cn1ncc2c([nH]c3ccccc32)c1=O
→ -10.1%	-4.0%
CCOc1ccc2nc(NC(=O)c3cc(=O)c4cc(C)cc(C)c4o3)sc2c1
→ -10.3%	4.5%
Cc1cc(C)cc(-n2c(SCC(=O)Nc3ccccc3)nc3c(oc4ccccc43)c2=O)c1
→ -10.2%	-6.8%
CCCCCCN(C(=O)CCCN1C(=O)NC(c2ccc(-c3ccccc3)cc2)C(C(=O)OCc2ccccc2)=C1C)C(C)C(=O)NCCCC (stereo unspecified)
→ 0.0%	i
Cc1ccc(NC(=O)CN(C)C(=O)Cn2c(=O)oc3ccccc32)cc1
→ -5.1%	-7.6%
COC(=O)C(C)Oc1ccc(-c2nccc(-c3cccs3)n2)cc1 (stereo unspecified)
→ -10.6%	/
Cc1ccc(S(=O)(=O)c2nc(-c3ccccc3)oc2N2CCN(c3ccccc3)CC2)cc1
→ 4.8%	-8.9%
CCOC(=O)c1c(C)[nH]c(C)c1S(=O)(=O)NCC(=O)N1CCN(c2cc(Cl)ccc2C)CC1
→ ?	?
Cc1ccc(NC(=O)N(Cc2ccc3c(c2)OCO3)Cc2cc3cc4c(cc3[nH]c2=O)OCCO4)cc1
→ -4.7%	-7.0%
CCOc1ccc(CNC(=O)C2CCC(=O)N2C2CCCC2)cc1OC (stereo unspecified)
→ -7.8%	i
Cc1ccc(Cl)cc1NC(=O)CCCn1c(=O)c2cccn2c2ccccc21
→ -11.7%	-13.9%
Cc1cc(C)cc(NC(=O)C(=O)NCCCN2CCCC2=O)c1
→ -4.5%	-8.4%
CCOC(=O)[C@@H]1[C@H]2COc3ccc(Br)cc3[C@@H]2N2C(=O)N(c3ccc(Br)cc3)C(=O)[C@]12C
→ -13.1%	i
